Bioassay records deposited in PubChem BioAssay by several laboratories.
Bead autofluor: compound fluorescence in toxin protease inhibitor counterscreen; 360,000 compounds, 3.1% hits; compound autofluorescence counterscreen, microsphere flow cytometry; stronger effect = higher value; AID 624483; fluorescence intensity (test concentration not listed);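 active means at least 3 SD above the mean of all compounds, about 16000 in these data; inconclusive means too few beads counted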;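 further: 100 nL of 1 mM stock went into each well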
PrP UTR inh: inhibition of PrP 5' UTR reporter expression | cell-based PrP 5' UTR mRNA reporter, plate reader | inhibition, % (no concentration beside the values) | 340,000 compounds, 0.35% hits | AID 488862, 2010;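 active means every replicate at 50% or more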;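 further: 0 = median of the neutral control wells; tested in H4 reporter cells; numbers are from one replicate; inactives centre near -14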
BJeLR lethal: MLPCN primary cell-based screen for lethality selective to Ras in HRASV12 cells | BJeLR (HRASV12) viability, CellTiter-Glo ATP luminescence, 48 h; reference of the scale not given here | inhibition, % (concentration not given with the values) | 300,000 compounds, 0.17% hits;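 active means replicate mean above 50%; inconclusive means above 50% but judged a plate artefact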;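 further: 50 nL library stock added to about 25 µL; numbers are from one replicate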
Mtb hypoxia inh: PubChem AID 1159583. M. tuberculosis hypoxia-regulated fluorescent reporter, fluorescence. fluorescence inhibition, % (concentration not given with the values). 300,000 compounds, 0.1% hits;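 active means 35 to 45% if threefold the growth effect, above 45% if 1.5-fold the growth effect; inactive means the rest, general growth blockers included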;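 further: wells of about 50 µL received 100 nL stock; 0% = vehicle wells and 100% = reference inhibitor wells; whole bacteria with a GFP reporter of the hypoxia response; strong numbers were not always called active; many hits fall short of the cut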
ugtP null kill: growth inhibition of ugtP-null S. aureus, primary screen, RN4220 ugtP deletion, OD600. 330,000 compounds, 0.54% hits. 16 h; some inactives read as strong as hits. AID 1259309, 2017. growth inhibition, % (concentration not given with the values);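 active means z-score under -3 and OD600 up to 0.15 on both plates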;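 further: plate controls were untreated wells for no effect and antibiotic for full effect; wells of about 80 µL received 100 nL stock; the first replicate is given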
RN4220 kill: growth inhibition of S. aureus RN4220, primary screen, OD600; 16 h; inhibition, % (test concentration not listed); 330,000 compounds, 0.33% hits;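 active means z-score of -3 or lower and OD600 up to 0.18 on both plates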;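 further: plate controls were untreated cells for no effect and reference antibiotic for full effect; stock transfer was 100 nL into about 80 µL; one replicate is shown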
Mtb hypoxia inh growth: second read-out of Mtb hypoxia inh, no call of its own (marks repeat the call); growth inhibition, %; measured here: M. tuberculosis growth (absorbance);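 0% = vehicle and 100% = reference antibiotic; read after six days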
* = called active by the depositor; ? = inconclusive; . = no result given; & = joins results of further samples; ! = not active in a repeat.

SMILES | Bead autofluor | PrP UTR inh | BJeLR lethal | Mtb hypoxia inh | Mtb hypoxia inh growth | ugtP null kill | RN4220 kill
COc1ccc(OC)c(NC(=O)CSc2nnc(C3CCCCC3)n2N)c1 | 4582 | -10.6 | 2.1 | 1.4 | 1.5 | 2.3 | -2.4
CCCCN(Cc1ccccc1)C1CCN(CCc2ccccc2)CC1 | 5131 | -11.3 | 8.9 | . | . | . | .
CC(c1ccccc1)n1c(Br)nc2c1c(=O)[nH]c(=O)n2C (stereo not drawn) | 3594 | -35.8 | -7.1 | 15.4 | 11.8 | 13.7 | -0.8
S=c1[nH]nc(-c2ccco2)n1N=C/C(Cl)=C/c1ccccc1 | . | . | . | 2.1 | 11.9 | -15.9 | 2.8
O=C(NCCc1c[nH]c2ccccc12)C1CCN(Cc2ccc(Br)cc2)CC1 | 4343 | -14.3 | 0.2 | 8.1 | 5.5 | -2.5 | -0.5
COC(=O)C1(CCSC)NC(c2ccccc2OC)C2C(=O)N(C)C(=O)C21 (stereo not drawn) | 10062 | -16.5 | -6.4 | 10.8 | 12.8 | 3.4 | 4.7
COc1cccc(C(=O)NNC(=O)C2CC(C)=C(C)CC2C(=O)O)c1 (stereo not drawn) | 4853 | -11.7 | 2.9 | . | . | 1.1 | 4.4
CCOc1cccc2sc(N(CCCN(C)C)C(=O)c3ccc(S(=O)(=O)N(C)c4ccccc4)cc3)nc12 | 3179 | -10.3 | -5.2 | 0.4 | 5.9 | -8.4 | -8.7
CCCNC(=O)c1ccccc1NC(=O)COc1cccc2c1OC(C)(C)C2 | 6495 | -21.6 | 4.4 | 10.0 | 1.0 | 0.5 | 1.6
Cc1cc2c(=O)oc(-c3ccc(Br)cc3)nc2s1 | 4187 | -32.2 | 6.3 | 8.2 | 5.5 | 3.8 | 8.7
COc1ccc(CN2CCNC(=O)C2CC(=O)NCC2CCOCC2)c(F)c1 (stereo not drawn) | 6879 | -16.2 | -0.7 | 11.5 | 8.3 | 6.0 | -1.4
CC1(C(=O)Nc2nc3ccccc3s2)CC1(Br)Br (stereo not drawn) | 3056 | -11.5 | 2.9 | -20.5 | -8.2 | -16.3 | -1.2
Cc1c(O)cc2c(c1O)C(=O)CC(c1ccc(O)cc1)O2 (stereo not drawn) | 5430 | -8.6 | 20.8 | . | . | -10.4 | 6.9
COc1cc(-c2cc(C(=O)Nc3ccc(S(N)(=O)=O)cc3)c3ccccc3n2)cc(OC)c1OC | 5358 | -23.0 | -0.5 | 0.2 | 10.1 | 4.4 | 4.5
CC(C)(C)OC(=O)CC[C@@H](C(=O)N1CCN(C(=O)OC(C)(C)C)CC1)n1cc(C(Cc2ccc(O)cc2)NC(=O)OC(C)(C)C)nn1 (stereo partly drawn) | 3523 | 0.4 | -13.5 | . | . | . | .
CCCn1c(SCC(=O)NCc2ccc(C)cc2)n[nH]c1=O | 4981 | -4.6 | 4.7 | 6.4 | 5.7 | 2.5 | 10.6
C=CCNC(=S)N1CCN(c2ncc3c(=O)c(C(=O)O)cn(CC)c3n2)CC1 | 9654 | -16.9 | 0.5 | -6.6 | 10.2 | 17.0 | 5.7
COc1cccc(-n2nnc3c(=O)n(Cc4ccc(F)cc4)cnc32)c1 | 10802 | . | -1.0 | 10.7 | 5.6 | 3.1 | 0.7
CCc1cc2c(SC(C)C(=O)NC3CCCC3)ncnc2s1 (stereo not drawn) | 3197 | -13.5 | . | 5.0 | 7.5 | -0.1 | 7.9
O=C(CN(C(=O)c1csnn1)c1ccc(F)c(Cl)c1)NCc1ccc2c(c1)OCO2 | 3522 | -7.5 | -5.6 | 3.4 | 8.1 | 7.3 | -3.7
CCCn1cnc2cc(NCc3cccc(OC)c3)ccc21 | 7093 | -79.1 | -16.6 | 2.3 | -3.8 | 3.2 | 4.9
Cc1cc(N2CCCC2)ccc1NC(=O)COc1ccccc1 | 15008 | -22.1 | . | 8.0 | 6.4 | 7.8 | 0.3
O=C(O)C(c1ccccc1)C1CCCCC1O (stereo not drawn) | 3472 | -16.1 | . | 17.2 | 7.5 | 0.0 | 2.5
COCC(C)n1c(C)cc(C(=O)COc2ccc(S(=O)(=O)N3CCOCC3)cc2Cl)c1C (stereo not drawn) | 6427 | -17.8 | . | 10.4 | 4.0 | 24.1 | 2.7
Cc1nn(Cc2ccccc2Cl)c(C)c1NC(=O)CCCn1nc(C)c([N+](=O)[O-])c1C | 9734 | -32.4 | -6.1 | 3.9 | 5.1 | 1.2 | 5.0
O=C(COC(=O)c1ccc(Cl)nc1)Nc1nnc(-c2ccccc2)o1 | 6338 | -10.3 | 1.9 | . | . | . | .
Cc1ccccc1NC(=O)Cn1nc(C(F)(F)F)cc1C1CC1 | 7974 | -19.6 | 2.5 | 6.6 | 7.9 | 4.6 | 2.1
CN(c1ccccc1)S(=O)(=O)c1cccc(NC(=O)CSc2nccc(=O)[nH]2)c1 | 3332 | -42.7 | . | -5.0 | 3.4 | -4.4 | 0.6
Cn1c(SCc2nc3ccccc3c(=O)[nH]2)nnc1-c1ccco1 | 7971 | -24.4 | 2.3 | 0.2 | -1.1 | -0.7 | 1.5
CN(CCc1ccccc1)C(=O)c1cccc(NC(=O)Cc2cccc(NC(=O)C3CCN(C(=O)C4CCCC4)CC3)c2)c1 | 3663 | -7.2 | . | -12.2 | -4.5 | 1.4 | 0.7

Looked up above.
ugtP null kill result of Cc1cc(N2CCCC2)ccc1NC(=O)COc1ccccc1 stands at 7.8
Mtb hypoxia inh result of COCC(C)n1c(C)cc(C(=O)COc2ccc(S(=O)(=O)N3CCOCC3)cc2Cl)c1C (stereo not drawn) stands at 10.4

(continued)
SMILES | Bead autofluor | PrP UTR inh | BJeLR lethal | Mtb hypoxia inh | Mtb hypoxia inh growth | ugtP null kill | RN4220 kill
O=C(NNC(=O)c1ccc2ccccc2c1)c1ccc(Cl)cc1 | 3993 | -24.4 | . | -4.1 | 1.1 | -10.2 | -0.7
CC1OC(OC2C(Oc3cc(O)c4c(c3)OC(c3ccc(O)cc3)CC4=O)OC(CO)C(O)C2O)C(O)C(O)C1O (stereo not drawn) | . | . | . | 84.8*! | 45.6*! | -6.1&-3.5 | 2.3&5.3
CCCOc1ccc(N2C(=O)CC(N(O)c3ccccc3)C2=O)cc1 (stereo not drawn) | 6795 | -33.4 | -11.5 | 14.0 | 3.6 | 1.0 | -0.2
CC1CCCCN1C(=O)CSc1nnc2ccccn12 (stereo not drawn) | 6400 | -32.2 | . | 8.1 | 6.7 | 6.2 | 1.5
COc1ccc(-n2ccnc(SCC(=O)NC3CCCC3)c2=O)cc1OC | 4928 | -3.7 | 2.1 | -4.3 | 0.5 | 3.7 | 0.6
FC(F)(F)c1cccc(Cc2noc(CN3CCCC(OCc4ccccn4)C3)n2)c1 (stereo not drawn) | 4337 | -5.4 | -6.8 | 12.5 | 3.9 | 5.5 | 4.4
CCOc1ccc(NC(=O)COn2nnc3ccc(S(=O)(=O)N4CCOCC4)cc32)cc1 | 3801 | -2.4 | -0.5 | 4.8 | 3.9 | 3.2 | 0.5
CCCn1c(=O)[nH]c2ccccc21 | 2898 | -27.7 | -4.5 | -1.6 | 6.1 | -5.0 | -8.3
CCC(C(=O)OC(C)C(=O)Nc1ccc(Cl)cn1)c1ccccc1 (stereo not drawn) | 6601 | -3.8 | -1.0 | 15.0 | 6.3 | 6.0 | -9.7
CCN(CC)c1ccc(/C=N/N2C(=O)c3ccccc3C2=O)cc1 | 2437 | -4.6 | 0.2 | . | . | . | .

One compound at a time (already shown).
`CCOc1ccc(NC(=O)COn2nnc3ccc(S(=O)(=O)N4CCOCC4)cc32)cc1` across the screens: Bead autofluor = 3801; PrP UTR inh = -2.4; BJeLR lethal = -0.5; Mtb hypoxia inh = 4.8; Mtb hypoxia inh growth = 3.9; ugtP null kill = 3.2; RN4220 kill = 0.5
`O=C(O)C(c1ccccc1)C1CCCCC1O` (stereo not drawn) across the screens: Bead autofluor = 3472; PrP UTR inh = -16.1; BJeLR lethal = .; Mtb hypoxia inh = 17.2; Mtb hypoxia inh growth = 7.5; ugtP null kill = 0.0; RN4220 kill = 2.5

Later entries.
SMILES | Bead autofluor | PrP UTR inh | BJeLR lethal | Mtb hypoxia inh | Mtb hypoxia inh growth | ugtP null kill | RN4220 kill
Cc1ccc(C(=O)NCC(=O)NCCc2ccc(S(N)(=O)=O)cc2)s1 | 4542 | -16.9 | 0.6 | 5.9 | 8.3 | 4.7 | 4.3
CCN(C(=O)CSc1nnc(-c2ccccc2Br)o1)C1CCS(=O)(=O)C1 (stereo not drawn) | 3757 | -3.7 | 5.1 | -10.9 | -13.8 | 2.6 | 5.9
COc1cccc(NC(=O)CN(C)C(=O)COc2ccccc2Cc2ccccc2)c1 | 3445 | -17.6 | . | 13.1 | 12.3 | 0.2 | 3.2
CN(C)CCSc1nc(O)c(-c2ccccc2)c(=O)n1-c1ccccc1 | 3529 | 2.9 | 4.4 | 13.1 | 11.9 | 7.3 | 4.3
O=c1sc2ccccc2c(=O)n1Cc1ccccc1F | 4175 | -9.5 | -2.8 | 6.2 | 1.0 | 4.2 | -4.4
CCC1(c2ccc(F)cc2)NC(=O)N(CC(=O)NCc2ccc(F)cc2)C1=O (stereo not drawn) | 3057 | -13.8 | 7.0 | 0.2 | -2.5 | 4.0 | 1.8
CCC(=O)Nc1ccc(Cl)c(-c2nc3ncccc3o2)c1 | 4451 | -26.9 | -9.9 | 16.6 | 6.6 | 6.2 | 5.4
CCCNC(=O)COC(=O)c1cc(SC)ccc1Cl | 3577 | -1.5 | -1.7 | . | . | 1.6 | 5.2
Cn1c(CNC(=O)CNC(=O)c2cccc(F)c2)cc(=O)n(C)c1=O | 5116 | -12.3 | -4.8 | 3.7 | 1.0 | 2.4 | 2.3
O=C1c2ccccc2-c2nnc(-c3ccccc3)cc21 | 3395 | -38.5 | 12.0 | 10.5 | 15.5 | -3.3 | 8.9
COc1ccc(NC(=O)COC(=O)C23CCC(=O)N2c2ccccc2S3)cc1 (stereo not drawn) | ? | -8.1 | 5.4 | 9.6 | 8.5 | 12.5 | 6.2
CC(Oc1ccc(Br)cc1)C(=O)Nc1ccc(S(=O)(=O)NC2=NCCCCC2)cc1 (stereo not drawn) | ? | 5.0 | . | -6.1 | -10.7 | 4.8 | 2.3
Cc1ccc(S(=O)(=O)N2CCN(C(=O)c3n[nH]c(=O)c4ccccc34)CC2)cc1 | 4168 | 6.6 | 0.4 | 11.2 | 4.6 | -0.6 | 5.1
Cc1cc(C)nc(SCC(=O)OCC(=O)Nc2ccccc2)n1 | 5841 | -7.9 | -4.2 | 1.8 | 1.1 | 3.9 | 3.6
C/C(=N\NC(=O)CSc1nc2ccccc2s1)c1cccnc1 | 5681 | -22.1 | 4.4 | . | . | . | .
Cc1cc(C)cc(S(=O)(=O)c2cn(C)c3cc(N4CCN(C)CC4)c(F)cc3c2=O)c1 | 5186 | -13.0 | -0.5 | 10.7 | 3.4 | -2.3 | 4.3
COCCCN1CC23C=CC(O2)C(C(=O)OC)C3C1=O (stereo not drawn) | 2462 | 6.9 | -4.8 | -5.4 | -6.4 | 7.6 | 1.9
O=C(CNc1cccc(F)c1)N1CCc2ccccc2C1 | 2915 | -53.8 | 5.6 | 17.4 | 17.6 | 11.0 | 2.6
COc1ccccc1NS(=O)(=O)c1cc(NC(=O)CCNC(C)=O)ccc1N1CCCCC1 | ? | -8.4 | -4.3 | 3.6 | 2.0 | 10.8 | 5.3
CN(C(=O)CSc1nnc(-c2ccc(Cl)cc2)n1C)C1CCS(=O)(=O)C1 (stereo not drawn) | 3876 | -5.9 | . | -10.2 | 3.0 | 0.5 | 3.1
O=S1(=O)Nc2c(ccc3cccnc23)-c2ccccc21 | 10425 | 23.8 | 2.3 | . | . | 98.4* | 98.5*
O=c1c2ccccc2nc(SCc2nc3ccccc3s2)n1CCCO | 2086 | -47.2 | -3.1 | -11.7 | -10.0 | -4.1 | 5.5
COCCN1CCn2c(nc3cc(Nc4nnc(C)c5ccccc45)ccc32)C1 | 5067 | -14.1 | -1.8 | 2.9 | -2.2 | 1.4 | 3.7
